GIV-Gai inh: inhibitors of GIV GBA-motif binding to rat Galpha-i3; P08753; AID 1224905; percent of control (FP), % (test concentration not listed); 210,000 compounds, 0.42% hits; Galpha-i3/FITC-GIV peptide fluorescence polarization, 90 min; active compounds read low; scaled: aluminum fluoride 0%, vehicle 100%;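 active = replicate mean at 85% of control or lower, very high polarization wells dropped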;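 also: lower values mean more displacement of the GIV peptide from Galpha-i3; wells of about 15 µL received 100 nL stock; the first replicate is given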
Target sequence (P08753 whole entry, looked up): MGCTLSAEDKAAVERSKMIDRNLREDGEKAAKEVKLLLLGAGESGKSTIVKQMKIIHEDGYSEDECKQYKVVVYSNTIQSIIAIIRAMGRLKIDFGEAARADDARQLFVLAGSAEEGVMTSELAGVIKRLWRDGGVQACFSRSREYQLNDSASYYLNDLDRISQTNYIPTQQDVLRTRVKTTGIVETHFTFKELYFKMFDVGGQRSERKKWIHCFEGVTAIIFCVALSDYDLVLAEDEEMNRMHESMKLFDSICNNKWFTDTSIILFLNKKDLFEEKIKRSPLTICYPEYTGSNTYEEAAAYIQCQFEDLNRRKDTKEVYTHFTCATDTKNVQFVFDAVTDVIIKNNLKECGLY
Sa growth inh: inhibitors of Staphylococcus aureus growth at 42 °C. S. aureus RN4220 growth, OD600, 20 h; active compounds read low. relative growth, % (no concentration beside the values). 170,000 compounds, 0.53% hits. AID 720641;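 active = growth at 42 °C up to 50% and 20 or more points under that at 30 °C, or under 10% at both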;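 also: 300 nL library stock went into each well; scaled to the means of positive and negative controls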
HCMV UL50-53 inh: inhibitors of HCMV UL50-UL53 nuclear egress complex interaction; inhibition, % (test concentration not listed); 190,000 compounds, 0.15% hits; HTRF UL50-UL53 interaction, normalized percent inhibition;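 active = both replicates at 50% or more, plus weaker picks with an unusually low signal ratio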;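 also: stock transfer was 100 nL into about 20 µL; 0% = negative control wells and 100% = wells with untagged competitor protein; inactives centre near -12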
Sa growth inh second temp: further read-out of Sa growth inh, marked with its call; relative growth, %; measured here: growth at 30 °C;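 optical density after 20 h as mean of two plates; 100% = untreated growth and lower means inhibition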
Starred values were filed as active, the others as inactive; · = no result given; & = joins results of further samples.

SMILES	GIV-Gai inh	Sa growth inh	Sa growth inh second temp	HCMV UL50-53 inh
COc1ccc(-c2[nH]nc3c2C(c2ccccc2Cl)C2=C(CC(C)(C)CC2=O)N3)cc1 (stereo not drawn)	102	·	·	19
CCOC(=O)c1nc2ccccc2nc1NC1CCCCC1	134	·	·	6
O=C(CNS(=O)(=O)c1ccccc1)Nc1cccc(Cl)c1	·	91	89	0
Cc1ccc2nc(SCc3c(C)c(C)cc(C)c3C)[nH]c2c1	102	92	49	·
COc1ccc(Oc2nnc(C)c3ccccc23)cc1	101	86	98	4
Cc1ccc(S(=O)(=O)N=C2C=CC(=O)C=C2)cc1	103	90	86	·
CCCN(CCC)CC(O)Cn1cc(/C=C/C(=O)c2ccc(Br)cc2)c2ccccc21 (stereo not drawn)	161	125	89	-18
Cc1cccc(Nc2c3c(nc4nncn24)CCC3)c1	104	104	88	-14
Cc1ccc(NC(=O)c2cn3c4c(ccc(Cl)c4c2=O)OC(C)C3)c(C)c1 (stereo not drawn)	107	97	96	·
Cc1oc(C(C)(C)C)cc1C(=O)NCc1ccc2c(c1)OCO2	100	96	88	-12
O=C(COc1ccccc1)Nc1nc2ccccc2n1CCN1CCCCC1	100	112	89	-4
C=CCn1c(SCc2ccc(C(=O)NCCO)cc2)nc2sc3c(c2c1=O)CCCC3	99	·	·	-24

Six of the entries above in order of their number in Sa growth inh, high to low.
smiles	GIV-Gai inh	Sa growth inh	Sa growth inh second temp
O=C(COc1ccccc1)Nc1nc2ccccc2n1CCN1CCCCC1	100	112	89
Cc1cccc(Nc2c3c(nc4nncn24)CCC3)c1	104	104	88
Cc1ccc(NC(=O)c2cn3c4c(ccc(Cl)c4c2=O)OC(C)C3)c(C)c1 (stereo not drawn)	107	97	96
Cc1oc(C(C)(C)C)cc1C(=O)NCc1ccc2c(c1)OCO2	100	96	88
O=C(CNS(=O)(=O)c1ccccc1)Nc1cccc(Cl)c1	·	91	89
COc1ccc(Oc2nnc(C)c3ccccc23)cc1	101	86	98

Next section:
SMILES	GIV-Gai inh	Sa growth inh	Sa growth inh second temp	HCMV UL50-53 inh
O=C(Nc1nnc(S(=O)(=O)Nc2ccccc2)s1)C1CCCCC1	106	101	94	0
CCCc1cc(=O)oc2cc(C)cc(OCC(=O)OCC)c12	106	102	100	5
Cc1c(C(=O)Oc2cccc(C(F)(F)F)c2)n(C)oc1=O	101	99	102	4
Cc1cc(C)cc(N(C)S(=O)(=O)c2nnc(NC(=O)COc3ccc(C)c(C)c3)s2)c1	110	105	91	-13
CCC(=O)N1CCCC1c1nc2ccccc2n1CC(=O)N(c1ccccc1)C(C)C (stereo not drawn)	104	·	·	-22
C=C(C)CN(CC)c1nc(N)c2c(N)nc3c(c2c1C#N)CC(=O)N3CC1CCCO1 (stereo not drawn)	·	98	98	-22
COc1cccc(C(=O)NCCSc2ccc(C)cc2)c1	102	92	96	-11
CCC(=O)N1CCc2cc(Br)cc(S(=O)(=O)N3CCCC(C(=O)Nc4ccc(C(C)C)cc4)C3)c21 (stereo not drawn)	103	89	93	5
CCSc1nccn2nc(-c3ccc(C(C)C)cc3)cc12	105	·	·	15
CCC1(C)CC(C(CCN)c2ccc(C)cc2)CCO1 (stereo not drawn)	·	91	95	-3
C#CCN1C(=O)S/C(=C/C=C/c2ccc(N(C)C)cc2)C1=O	-61*	115	103	-24
Cn1nc(CC(=O)NN)c2ccccc2c1=O	·	87	88	-17
CCCN1CCN(CCCNC(=O)C2CCN(c3ncnc4c3sc3cccc(F)c34)CC2)CC1	110	111	90	3
CC(C)(C)c1ccc(-c2nnc(SCCC#N)n2C2CCCC2)cc1	·	98	93	-8
Clc1ccc(OCc2nnc3c4cnn(-c5ccccc5)c4ncn23)cc1	100	117	82	-12
S=C(NCc1ccco1)Nc1ccc2nc(-c3ccccn3)c(-c3ccccn3)nc2c1	·	96	71	-77
CC1CCCC(C)N1C(=O)COC(=O)c1ccc(-n2cccc2)cc1 (stereo not drawn)	·	109	96	8
CCOc1ccc(C2CC(=O)NC(NC(=O)c3ccc(C)cc3)=N2)cc1 (stereo not drawn)	110	108	105	·
COc1ccccc1OCCn1c(COc2cc(C)ccc2C)nc2ccccc21	99	89	85	-30
O=C(CSc1nnnn1-c1ccccc1)NCC1CCCCC1	·	99	96	-20
COc1cc(C2c3c(oc4ccccc4c3=O)C(=O)N2c2nnc(C)s2)ccc1O (stereo not drawn)	102	90	71	-43
ON(Cn1nnc2ccccc21)Cn1nnc2ccccc21	103	91	100	-6
C(=C\c1ccccc1)/CN1CCN(c2ncnc3sccc23)CC1	·	89	91	3
Cc1cc(C)cc(NC(=O)N2CCN3CCCCC3C2)c1 (stereo not drawn)	110&101	102	94	-4

Five entries picked at random from the list so far, as already listed:
SMILES	GIV-Gai inh	Sa growth inh	Sa growth inh second temp	HCMV UL50-53 inh
Cc1c(C(=O)Oc2cccc(C(F)(F)F)c2)n(C)oc1=O	101	99	102	4
Cc1oc(C(C)(C)C)cc1C(=O)NCc1ccc2c(c1)OCO2	100	96	88	-12
Clc1ccc(OCc2nnc3c4cnn(-c5ccccc5)c4ncn23)cc1	100	117	82	-12
Cc1ccc(NC(=O)c2cn3c4c(ccc(Cl)c4c2=O)OC(C)C3)c(C)c1 (stereo not drawn)	107	97	96	·
CCOc1ccc(C2CC(=O)NC(NC(=O)c3ccc(C)cc3)=N2)cc1 (stereo not drawn)	110	108	105	·

(next part)
SMILES	GIV-Gai inh	Sa growth inh	Sa growth inh second temp	HCMV UL50-53 inh
CCOC(=O)c1ccc(NC(=O)Cn2cnc3c2c(=O)n(C)c(=O)n3C)cc1	97	·	·	-16
Clc1ccc(Nc2ccc(-c3ccccc3)nn2)cc1	100	103	102	12
Cn1nc(C(=O)NCC2CCCO2)c2c1-c1ccsc1CC2 (stereo not drawn)	99	·	·	7
CC(C)c1ccc(-c2nnn(CC(=O)c3ccc(NS(C)(=O)=O)cc3)n2)cc1	·	86	89	-19
Clc1ccc2c(c1)NNc1nncn1-2	101	19	11	-294
O=C(NCCCn1ccnc1)C1CC(=O)N(CCc2c[nH]c3ccc(Cl)cc23)C1 (stereo not drawn)	103	·	·	-10
O=C(O)c1ccccc1Nc1ccccc1C(=O)O	97	93	81	-3
COc1ccc(C2CCCN2S(=O)(=O)c2ccc3c(c2)OCCO3)cc1 (stereo not drawn)	100	·	·	-31
COc1ccc(OC)c(S(=O)(=O)NC2CC2)c1	98	89	85	·
O=S(=O)(c1sc(Br)cc1Br)N1CCSCC1	104	102	116	4
COc1ccc2nc(NC(=O)Cc3noc4ccccc34)sc2c1	110	·	·	-12
CC1(C)CC(=O)C=C(Nc2ccc3c(c2)OCO3)C1	·	82	86	-36
O=C(C1CCCN(c2nc3cccnc3s2)C1)N1CCN(c2ccc(F)cc2)CC1 (stereo not drawn)	105	·	·	-31
O=C(Cc1cccs1)NCc1ccc(Cl)cc1	·	94	90	-10
Cc1ccc(NC(=O)c2cnn(-c3ccc(C)c(C)c3)c2C2CCN(C(=O)OC(C)(C)C)CC2)c(C)c1	100	95	96	19
CC(C)Sc1ncc(Cl)c(C(=O)Nc2ccc(S(=O)(=O)N(C)c3ccccc3)cc2)n1	99	90	85	-33
O=c1c2ccccc2c(C=NCCCN2CCOCC2)c(O)n1Cc1ccccc1	·	108	88	-76
CCCC1=Nc2cc(C(=O)NCc3ccccc3)ccc2Sc2ccccc21	105	112	93	-14
CCOC(=O)c1ccc2c(c1)CC/C(=C\c1ccc(Cl)cc1Cl)C2=O	104	120	86	-28
Cc1nc(Cc2nnc(SCC(=O)NC(=O)c3cccn3C)o2)cs1	·	103	87	-21
CCOc1ccc(CCNC(=O)c2[nH]c3cc(OC)ccc3c2Sc2ccccc2)cc1OCC	100	123	91	-16
COc1ccccc1CNC(=O)c1cc(-c2ccc(Cl)cc2)nc2n[nH]c(-c3ccccc3)c12	97	·	·	-28
Nc1[nH]c(N=NC(=O)c2cccc(S(=O)(=O)N3CCOCC3)c2)c2ccccc12	·	97	91	-82
CCOC(=O)c1c(C)n(-c2ccc(C)cc2)c2ccc(OCC(O)CN(CC)CC)cc12 (stereo not drawn)	108	·	·	14
CCOC(=O)Cc1csc(/N=C/c2nc(-c3ccc(Br)cc3)oc2O)n1	106	·	·	-26
Fc1ccccc1-c1csc(-c2cccnc2)n1	·	95	58	-60
N#Cc1nc(COc2ccccc2)oc1N1CCCCC1	102	89	87	-15
N#Cc1cc(C(=O)c2ccccc2O)coc1=O	·	90	89	-9
CCN(CC)S(=O)(=O)c1cc(C(=O)Nc2cccc3c2C(=O)NC3=O)ccc1Cl	·	91	92	-50
CC(C)C(=O)OCc1cc(=O)n2nc(C3CCCCC3)sc2n1	112	124	89	·
O=C(Nc1ccc(N2C(=O)C=CC2=O)cc1Cl)c1ccco1	99	95	35	2
O=C(NCc1ccccc1)c1cccn1-c1nnc(N2CCOCC2)s1	109	·	·	-16
C=C1c2ccccc2N=C(SCC(=O)Nc2cc(C)ccc2OC)N1C	·	118	97	-1
CCC(C)NC(=S)Nc1ncccc1C(=O)OC (stereo not drawn)	102	103	94	-32
COc1cccc(-c2nc(SCC(=O)NCC3CCCO3)c(-c3ccccc3)[nH]2)c1 (stereo not drawn)	102	·	·	-11
CCOc1ccccc1-c1cc(C(=O)Nc2ccon2)c2ccccc2n1	110	80	80	-9
O=C(CCc1ccccc1)OCc1nnc(-c2ccc(Br)cc2)o1	·	100	83	-14
Cc1cc(NC(=O)CSc2nc3nccnc3c(=O)n2Cc2ccco2)n[nH]1	104	85	83	-46
CCN(Cc1ccncc1)Cn1nc(C(=O)O)c2ccccc21	·	82	82	-58
CN(C)CCNC(=O)c1cc2occc2c(Nc2ccc(F)cc2)n1	103	·	·	-21
O=C(NCCCn1ccnc1)c1ccc2c(c1)OCO2	101	89	88	-11
COc1ccc(OCc2nc3ccccc3n2C)cc1	103	91	87	-35
COc1ccc(C=Nc2nc3ccccc3nc2N2CCCC2)cc1	·	88	89	-42
COc1ccc(C(=O)NCC(c2cccnc2)N2CCc3ccccc3C2)cc1OC (stereo not drawn)	108	104	92	-8
Cc1ncc(C(=O)NC2CC2)c(N)n1	94	·	·	-27
Cc1cc(N2CCN(C)CC2)nc2ccc(NC(=S)N3CCCCC3)cc12	104	83	85	·
Cc1ccc(NC(=O)CS(=O)CC(=O)Nc2ccc3c(c2)CCC3)cc1 (stereo not drawn)	105	101	89	-20
Cc1ccc(CN(C)C(=O)c2cccc(S(=O)(=O)N(C)C)c2)o1	·	99	96	-4
CC(C)n1ncc2c1N=C(c1ccco1)N(C)C2c1ccccc1 (stereo not drawn)	·	77	98	-10
Cc1ccc(C(=O)COC(=O)C(Cc2c[nH]c3ccccc23)NC(=O)c2ccc(Br)cc2)cc1 (stereo not drawn)	104	112	87	·
O=C(NCCO)c1cnc2sccn2c1=O	104	·	·	-16
O=C(O)/C=C/C(=O)Nc1ccccc1SCc1ccccc1Cl	103	111	54	-5
Cc1ccc(Cn2c(=O)n(Cc3ccccc3)c(=O)c3c(C)c(C)sc32)cc1	103	95	87	4
Cc1ccc(C)c(OCc2nnc(SCC(=O)NC(=O)NCc3ccco3)o2)c1	·	108	101	8
O=C(COc1ccccc1)Nc1ccc2nc(SCC(=O)N3CCOCC3)sc2c1	96	100	85	-31
CC(=O)N1CCN(C2CCSC2)CC1 (stereo not drawn)	96	108	86	-20
CNS(=O)(=O)c1ccc(NC(=O)c2ccc(C)o2)cc1	102	101	109	1
COc1cccc(CNC(=O)c2ccc(Cl)c(-n3c(C)nc4cccnc43)c2)c1	108	·	·	-7
Cc1ccc(NC(=O)c2oc3ccccc3c2NC(=O)c2ccccc2)cc1	99	97	82	·
c1ccc(N=P(c2nc3ccccc3o2)(N2CCOCC2)N2CCOCC2)cc1	·	70	98	-29

Shown with two lines to a compound: entries from further up.
Under each structure – GIV-Gai inh | Sa growth inh | Sa growth inh second temp | HCMV UL50-53 inh
> Cc1cc(NC(=O)CSc2nc3nccnc3c(=O)n2Cc2ccco2)n[nH]1
 : 104 | 85 | 83 | -46
> CCN(Cc1ccncc1)Cn1nc(C(=O)O)c2ccccc21
 : · | 82 | 82 | -58

Going on with the list:
SMILES	GIV-Gai inh	Sa growth inh	Sa growth inh second temp	HCMV UL50-53 inh
Cc1ccc(N(C)C(=O)N2CCN(c3ccccn3)CC2)cc1	99	96	93	·
Cc1cc(S(=O)(=O)NCCc2csc(-c3cccc(F)c3)n2)ccc1F	103	88	94	·
O=C(CCC(=O)c1ccc(Br)cc1)Nc1cccnc1	106	83	64	·
O=C(CSc1ccccc1)N1c2ccccc2Sc2ccccc21	101	15	15	-18
CCNCC1OCCc2ccccc21 (stereo not drawn)	105	108	91	-6
CC(C)C(NC(=O)OCc1ccccc1)C(=O)O (stereo not drawn)	·	123	101	11
Cc1ccc(-c2nc(C(=O)Nc3cc(C)on3)c3n2CCCCC3)cc1	109	·	·	-11
O=C(O)CSCC(=O)Nc1ccc2c(c1)C(=O)OC2	106	105	83	-15
Cc1cc(S(=O)(=O)C(CNC(=O)c2ccc(OC(C)C)cc2)c2cccs2)ccc1F (stereo not drawn)	105	81	73	·
CCOc1ccc2c(c1)C(C)=CC(C)(C)N2C(=O)CSc1nnc(C2CC2)n1C	·	96	102	-4
CCOc1ccc(S(=O)(=O)N2CCN(c3cc(=O)n4nc(-c5ccccc5)sc4n3)CC2)cc1	101	·	·	45*
O=C(CSc1nc(=O)[nH]c2c1CCCC2)Nc1ccc(Cl)c(Cl)c1	94	95	94	·
Cc1ccc(C(=O)OCC(=O)NCC2CCCO2)c(C)c1 (stereo not drawn)	·	114	94	3
CC1CCCCN1C(=O)Cc1ccc(Cl)cc1 (stereo not drawn)	·	96	96	7

Screens as filed in PubChem BioAssay.
